Assay outcomes (PubChem)
SARS PLP yeast: qHTS of Yeast-based Assay for SARS-CoV PLP; S. cerevisiae expressing SARS-CoV PLpro, growth rescue; control for the full effect not named in the record; Potency, µM (titrated, usually from 32.9 µM), for inactives: at the top dose activity, positive = growth rescue; 330,000 compounds, 0.19% hits; AID 485353, 2010; note: 0% is about no effect; nearly all actives have a fitted effect of over 55% in size; growth read by luminescence after 48 h
Cruzain inh noDet: qHTS Assay for Promiscuous and Specific Inhibitors of Cruzain (without detergent). Cruzipain (Trypanosoma cruzi), P25779. purified cruzain, Z-FR-AMC fluorescence, no detergent. Potency, µM, inactives show max response, negative = inhibition, hits mostly inhibitors. 200,000 compounds, 2.3% hits. AID 1476, 2009; active = well fitted curve in the direction sought with a large enough effect; inconclusive = small, poorly fitted or top-dose-only effect, or another doubt; inactive = no such curve, though single readings can be large; an effect the other way counts as inactive or inconclusive;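 note: plate controls were enzyme without inhibitor for no effect and buffer without enzyme for full effect; nearly all actives have a fitted effect of over 40% in size; top concentration of the series not given in the record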
Target sequence (P25779 123-467 limits assumed): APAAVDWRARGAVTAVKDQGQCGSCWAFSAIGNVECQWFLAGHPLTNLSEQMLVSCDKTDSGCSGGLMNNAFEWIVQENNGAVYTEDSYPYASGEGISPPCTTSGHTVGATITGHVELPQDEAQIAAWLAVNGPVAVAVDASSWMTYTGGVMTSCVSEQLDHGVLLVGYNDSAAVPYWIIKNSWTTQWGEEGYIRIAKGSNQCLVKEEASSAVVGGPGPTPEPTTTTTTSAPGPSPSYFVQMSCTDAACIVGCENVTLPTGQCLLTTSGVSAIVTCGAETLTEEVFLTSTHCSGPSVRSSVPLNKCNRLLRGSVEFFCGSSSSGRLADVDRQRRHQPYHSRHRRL
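Detergent-free condition (0.00005% Triton X-100) in acetate buffer pH 5.5 with DTT. 1.5 nM enzyme and compound were pre-mixed 15 min, then 2 uM Z-FR-AMC substrate added; reaction progress from fluorescence change between first and third reads (60 s).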
Marburg entry inh: qHTS for inhibitors of binding or entry into cells for Marburg Virus; AID 540276, 2011; Potency, µM (series often up to 37.8 µM), for the others: top-dose activity change, negative = inhibition, actives largely listed as inhibitors; Marburg virus pseudotyped entry inhibition, cell reporter; control for the full effect not named in the record; about a third of the inactives were read at about 46 µM; 300,000 compounds, 1.8% hits; active = well fitted inhibition curve with a large enough effect; inconclusive = small, poorly fitted or top-dose-only effect, or effect the other way; inactive = flat fitted curve, though single readings scatter; tested in HEK293 cells; about a fifth of its hits are not listed in these tables; note: % is set by controls: 0 for no effect and ±100 for the full control effect; luciferase read-out
LASV entry inh: qHTS for Inhibitors of binding or entry into cells for Lassa Virus. Lassa virus pseudotype entry inhibition, cell reporter; control for the full effect not named in the record. 300,000 compounds, 1.2% hits. Potency, µM (highest dose often 37.9 µM), inactives show at the highest dose activity change, negative = inhibition, actives largely listed as inhibitors; active means well fitted inhibition curve with a large enough effect; inconclusive means small, poorly fitted or top-dose-only effect, or effect the other way; inactive means flat fitted curve, though single readings scatter; tested in HEK293 cells; note: % is set by controls: 0 for no effect and ±100 for the full control effect; nearly all actives have a fitted effect of over 50% in size; luciferase read-out
Cruzain Triton: qHTS Assay for Promiscuous and Specific Inhibitors of Cruzain (with detergent) | purified cruzain, Z-FR-AMC fluorescence, 0.01% Triton | Potency, µM, inactives show max response, negative = inhibition, hits mostly inhibitors | 200,000 compounds, 0.43% hits | Cruzipain (Trypanosoma cruzi), P25779; active = well fitted curve in the direction sought with a large enough effect; inconclusive = small, poorly fitted or top-dose-only effect, or another doubt; inactive = no such curve, though single readings can be large; an effect the other way counts as inactive or inconclusive;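 note: plate controls were neutral wells for no effect and buffer without enzyme for full effect; nearly all actives have a fitted effect of over 40% in size; top concentration of the series not given in the record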
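Steps: dispense cruzain (1.5 nM final) in acetate buffer pH 5.5 with DTT and 0.01% Triton X-100; pin-transfer compounds; incubate 15 min RT; add Z-FR-AMC (2 uM final); read fluorescence every 30 s, using the 60 s intensity change.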
2A StopGo: High Throughput Screening for Foot and Mouth Disease Virus Antivirals | Potency, µM (titrated, usually from 57.9 µM), inactives show at the highest dose signal change, negative = less light | 410,000 compounds, 1.2% hits | human cells with a luciferase reporter of 2A StopGo recoding; control for the full effect not named in the record | AID 1159524, 2015; active = well fitted falling curve with a large enough effect; inconclusive = small, poorly fitted or top-dose-only effect; inactive = no such curve, though single readings can be large or run the other way; tested in HEK293T cells; note: % is set by controls: 0 for no effect and ±100 for the full control effect; nearly all actives have a fitted effect of over 45% in size; luciferase light after 4 h
RE007 growth inh: qHTS Assay for Inhibitors of the HIV-1 protein Vpr; 360,000 compounds, 0.21% hits; Potency, µM (titrated, usually from 92.2 µM), without a hit: at the highest dose activity change, negative = less growth; S. pombe RE007 Vpr strain, BacTiter-Glo ATP luminescence, 24 h; control for the full effect not named in the record; active = well fitted falling curve with a large enough effect; inconclusive = small, poorly fitted or top-dose-only effect; inactive = no such curve, though single readings can be large or run the other way;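 note: % is set by controls: 0 for no effect and ±100 for the full control effect; nearly all actives have a fitted effect of over 50% in size; the assay follows cell death caused by Vpr and the record does not say whether a fall means rescue or toxicity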
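Fission yeast strain RE007, carrying one chromosomally integrated HIV-1 vpr copy, was seeded at OD 0.01 in PMG+AL medium with 23 nL pinned compound. After 24 h at 30 °C and 99% humidity, viability was read by BacTiter-Glo luminescence.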
NS1 function inh: qHTS Assay for Inhibitors of Influenza NS1 Protein Function. 270,000 compounds, 0.4% hits. S. cerevisiae slowed by influenza A NS1, growth recovery by OD600. Potency, µM (top dose mostly 46.1 µM), without a hit: at the top dose activity, positive = more growth; note: actives are rising curves; nearly all actives have a fitted effect of over 50% in size
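S. cerevisiae expressing influenza A NS1, grown in glucose, washed, then diluted 1:100 into pH 6.0 -URA galactose medium with 23 nl compound. Growth recovery read as OD600; NS1-free strain serves as control.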
* = called active by the depositor; u = inconclusive; x = not tested or not shown; & = joins results of further samples; [ ] = dose if it differs, or a comment. Unless noted, calls come from the whole dose curve; as a rule, active means well fitted rising curve with a large enough effect; inconclusive means small, poorly fitted or top-dose-only effect; inactive means no such curve, though single readings can be large or run the other way. Potency is the fitted concentration of half-maximal effect.

SMILES | SARS PLP yeast | Cruzain inh noDet | Marburg entry inh | LASV entry inh | Cruzain Triton | 2A StopGo | RE007 growth inh | NS1 function inh
NC(=O)C(c1ccc(F)cc1)c1ccc(C(=O)c2ccccc2)cc1 (stereo unspecified) | -1.1% | x | x | x | x | u | 11.5% | -5.4%
CC(Oc1ccc2c(-c3ccccc3)cc(=O)oc2c1)C(=O)NC(Cc1c[nH]c2ccc(O)cc12)C(=O)O (stereo unspecified) | 1.7% | x | x | x | x | 5.8% | -6.0% | 29.6%
Cc1cc(C(=O)CN2C(=O)c3ccccc3C2=O)c(C)n1C1CC1 | 3.9% | -12.6% | 9.8% | 11.4% | 0.1% | 46.4%[activator] | 6.5% | 7.2%
Cc1cccc(NC(=O)c2cccc(S(=O)(=O)N3CCc4ccccc4C3)c2)n1 | -2.6% | x | -0.5% | 2.3%[46.1 µM] | x | u | -23.5% | x
CC1CCN(CCCNC(=O)CN2C(=O)CSc3ccc(S(=O)(=O)N4CCC(C)CC4)cc32)CC1 | 8.3% | 2.2% | x | 26.0%[46.1 µM] | 0.4% | -12.0%&-4.1% | -16.5% | -4.5%
CCCCCN=C(C)c1c(O)c2ccccc2oc1=O | -9.4% | -15.3% | u | -18.4% | -1.8% | 11.8% | -12.1% | -159.2%
Cc1cc(NS(=O)(=O)c2ccc(NS(=O)(=O)c3ccc(Br)cc3)cc2)no1 | 3.0% | x | u | u | x | -17.6% | -0.4% | 15.5%
Nc1ccc(CCN2CCN(c3cccc(C(F)(F)F)c3)CC2)cc1 | x | -15.1% | u | u | -3.0% | -23.3%&-9.5% | 3.7% | -11.4%
Cc1cc2ccccc2n1-c1ccc(C(=O)N2CCC(C(=O)NCc3ccccc3Cl)CC2)s1 | x | u | x | -27.6%[46.1 µM] | -3.4% | -18.9% | x | x
CC1(C)CC(NC(=O)COc2ccc([N+](=O)[O-])cc2)CC(C)(C)N1 | 0.1% | x | -18.3%[46.1 µM] | 4.4%[46.1 µM] | x | -12.7% | 0.9% | x
CCC(C)(C)c1ccc(OC(=O)c2cccnc2Cl)cc1 | -3.0% | x | 8.1%[46.1 µM] | 23.8% | x | 38.7%[activator] | 15.8% | -19.6%
N#CC1(NC(=O)COc2ccc3oc4ccccc4c3c2)CCCCC1 | 10.2% | 6.0% | -0.9% | 7.2% | 4.4% | 6.5% | -14.3% | 11.2%
CC(C)(C)NC(=O)C(c1ccc(O)cc1)N(C(=O)CCC(=O)Nc1nccs1)c1ccc(F)cc1 (stereo unspecified) | -1.5% | x | 2.24µM* | u | x | -7.1% | 11.9% | 0.8%
CC1CCCN(C(=O)COc2ccc3c(c2)OCO3)C1 (stereo unspecified) | -1.5% | x | x | x | x | 42.9%[activator] | -3.9% | 8.1%
CCCCOc1ccc(Cl)cc1CSc1nncn1N | -7.2% | 7.9% | -23.6% | -1.5% | 6.1% | -17.9% | -0.7% | 0.4%
Cc1cc(Oc2nc3ccccn3c(=O)c2/C=C(\C#N)C(=O)NC2CCS(=O)(=O)C2)ccc1Cl (stereo unspecified) | 2.0% | x | u | u | x | u | -12.5% | 3.7%
O=C(CSc1nnc(CNc2ccc(Cl)cc2)n1Cc1ccccc1)NCc1ccco1 | -8.7% | u | -8.5% | -5.4% | -9.2% | -5.8% | 1.8% | -21.2%
COCCCNC(c1ccccc1)c1ccncc1 (stereo unspecified) | 4.4% | -1.2% | -8.0% | 3.6% | 4.3% | 2.4% | 4.6% | 0.6%
COc1ccc(CCNCc2c(-c3ccccc3)n(C)c3ccccc23)cc1 | 1.7% | x | u | 8.91µM* | x | u | 5.5% | -1.9%
COc1cccc(Cn2c(=O)n(Cc3ccccc3)c(=O)c3c2c2cc(OC)ccc2n3C)c1 | x | 8.3% | x | 2.0%[46.1 µM] | -0.4% | -2.4% | x | x
CN(C)c1nc(-c2ccccc2)cc(C(F)(F)F)c1C#N | -7.8% | 0.7% | -2.0% | 5.7% | -23.7% | -18.5% | 0.9% | -6.3%
Cn1c(SCC(=O)Nc2ccc(NC(=O)c3ccccc3)cc2)nnc1-c1ccncc1 | 0.0% | x | -3.0%[46.1 µM] | x | x | 8.4% | 1.7% | 0.9%
COc1cccc(/C=N/NC(=O)CNC(=O)COc2cccc(C)c2)c1O | 3.6% | x | x | x | x | 18.3% | 15.9% | -2.2%
COC(=O)c1nc(NC(=O)c2ccccc2Cl)n[nH]1 | 3.3% | -9.7% | -0.9% | 14.0% | 2.8% | -8.3% | -1.5% | 11.4%
COc1ccc(N2CCN(C(=O)CCS(=O)(=O)c3ccc4c(c3)NC(=O)C(C)S4)CC2)cc1 (stereo unspecified) | -2.0% | x | x | x | x | u | 0.4% | 11.2%
O=C(COC(=O)CCC1CCCC1)Nc1cc(S(=O)(=O)N2CCOCC2)ccc1Cl | -5.2% | x | 12.1%[46.1 µM] | 26.2% | x | -8.5% | 19.3% | x
Nc1nonc1-n1nnc(C(=O)N/N=C/c2cc(Br)ccc2O)c1CSC1=NCCS1 | 4.47µM* | u | u | u | -2.6% | u | 1.9% | 27.2%
CC(C)c1ccc(/C=C2\NC(=S)N(Cc3cccnc3)C2=O)cc1 | -0.7% | x | u | u | x | -8.6% | 2.6% | -5.4%
O=C(Cc1ccc(F)cc1)N1CCN=C1SCc1ccc([N+](=O)[O-])cc1 | 9.8% | 2.5% | u | -16.7% | -3.8% | -19.5% | -19.7% | 6.3%
COc1ccc(/C=C2\SC(=S)N(C(C)C(=O)NC3C=CS(=O)(=O)C3)C2=O)cc1 (stereo unspecified) | -1.5% | x | 2.5%[46.1 µM] | -21.0%[46.1 µM] | x | 9.9% | 4.8% | -13.0%
CCOC(=O)Cc1nnc(Nc2ccc(C)cc2)c2ccccc12 | -24.2% | 2.2% | -1.0% | -2.9% | -1.2% | -3.0% | -1.6% | 18.5%
Cc1cc(-n2c(SCc3ccccc3F)nc3n[nH]c(C)c3c2=N)ccc1Cl | 0.7% | x | u | u | x | u | 3.6% | x
S=C(NCc1ccccc1)NCc1ccccn1 | 1.9% | x | -17.0% | -2.4% | x | 24.1% | 6.7% | -2.9%
Cc1nc2[nH]c(=S)n(C)c(=O)c2nc1C | -8.9% | -11.9% | -1.7% | 13.8% | -4.8% | -17.7% | 12.8% | 10.3%
COc1ccc(S(=O)Cc2ccc(C(=O)NCc3cccc(OC)c3)o2)cc1 (stereo unspecified) | u | x | x | x | x | -13.3% | -6.8% | -3.0%
CSc1oc(-c2ccco2)nc1S(=O)(=O)c1ccc(F)cc1 | 18.3% | -4.9% | x | x | -5.0% | -5.5% | -10.1% | -42.7%
COc1ccc2c(c1)OC1(C)CC2C(C(=O)c2ccccc2OC)C(=O)N1 (stereo unspecified) | -21.0% | -4.8% | 23.9% | -24.5% | -2.0% | -25.8% | 1.8% | -61.9%
COc1ccc(NC(=O)CSc2nc3ncccc3[nH]2)cc1OC | -16.9% | -7.4% | 1.1% | 6.8% | 0.6% | 16.5% | -0.1%[3.69 µM] | 0.5%
COc1ccc(CCNC(=O)c2ccc3c(c2)NC(=O)CS3)cc1OC | 1.4% | x | -28.9%[46.1 µM] | -10.0%[46.1 µM] | x | -1.7% | -3.7% | 1.1%
CCCC(C(=O)NC1=NCCS1)c1ccccc1 (stereo unspecified) | -6.3% | x | 17.5%[46.1 µM] | u | x | 12.1% | -1.2% | x
Cc1ccc(CN2CCN(Cc3cc(=O)c4ccccc4[nH]3)CC2CCO)o1 (stereo unspecified) | -0.1% | x | x | x | x | -13.3% | 2.4% | -4.6%
CC1(C)CC(C(CC(=O)N2CCCC2)Cc2ccccc2)CCO1 (stereo unspecified) | 0.9% | x | x | x | x | -16.7% | -9.4% | -3.4%
COc1ccc(C2CC(c3cccs3)=NN2C(=O)c2ccccc2)cc1OC (stereo unspecified) | 4.8% | x | 1.4% | -9.3% | x | -18.6% | 6.3% | -1.0%
CCOC(=O)c1c(-c2ccccc2)csc1NC(=O)c1cc(-c2cccc(Cl)c2)on1 | x | 6.5% | u | -1.0%[46.1 µM] | -2.1% | -22.1% | x | x
CC(=O)Nc1ccc(NC(=O)C(C)OC(=O)c2ccc(S(=O)(=O)N3CCCCC3)cc2)cc1 (stereo unspecified) | -1.4% | x | u | -24.8%[46.1 µM] | x | -2.9% | -4.3% | x
C=CCn1cc(C(=O)N2CCN(CC)CC2)c(=O)c2cc(S(=O)(=O)N(CC)CC)ccc21 | 0.7% | x | 6.1%[46.1 µM] | 26.3%[46.1 µM] | x | 11.6% | -0.7% | 5.2%
CCN1CCN(c2ccc(S(=O)(=O)N3CCCCC3)cc2NC(=O)COc2cc(C)ccc2Cl)CC1 | 2.9% | x | u | u | x | -12.3% | 20.9% | x
CCOC(=O)Cc1csc(SCC(=O)Nc2cc(Cl)ccc2Oc2ccccc2)n1 | -8.6% | 13.7% | u | 2.0% | -1.1% | u | 11.2% | 7.9%

Structural class, those above containing a cyano group.
SMILES | SARS PLP yeast | Cruzain inh noDet | Marburg entry inh | LASV entry inh | Cruzain Triton | 2A StopGo | RE007 growth inh | NS1 function inh
N#CC1(NC(=O)COc2ccc3oc4ccccc4c3c2)CCCCC1 | 10.2% | 6.0% | -0.9% | 7.2% | 4.4% | 6.5% | -14.3% | 11.2%
Cc1cc(Oc2nc3ccccn3c(=O)c2/C=C(\C#N)C(=O)NC2CCS(=O)(=O)C2)ccc1Cl (stereo unspecified) | 2.0% | x | u | u | x | u | -12.5% | 3.7%
CN(C)c1nc(-c2ccccc2)cc(C(F)(F)F)c1C#N | -7.8% | 0.7% | -2.0% | 5.7% | -23.7% | -18.5% | 0.9% | -6.3%
